# Mtb hypoxia rep = inhibitors of hypoxia-regulated fluorescent reporter in Mycobacterium tuberculosis. actives 0.1% (n = 300,000). fluorescence inhibition, % (concentration not given with the values). M. tuberculosis hypoxia-regulated fluorescent reporter, fluorescence;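 active means 35 to 45% if threefold the growth effect, above 45% if 1.5-fold the growth effect; inactive means the rest, general growth blockers included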;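 further: wells of about 50 µL received 100 nL stock; 0% = vehicle wells and 100% = reference inhibitor wells; whole bacteria with a GFP reporter of the hypoxia response; strong numbers were not always called active; many hits fall short of the cut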
# Sa ugtP lethal = compounds lethal to S. aureus RN4220 ugtP deletion mutant. OD600 growth, 16 h; some inactives read as strong as hits. growth inhibition, % (test concentration not listed). actives 0.54% (n = 330,000). AID 1259309;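 active means z-score under -3 and OD600 up to 0.15 on both plates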;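 further: plate controls were untreated wells for no effect and antibiotic for full effect; wells of about 80 µL received 100 nL stock; the first replicate is given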
# Sa RN4220 lethal = S. aureus RN4220 growth inhibition. OD600, 16 h. actives 0.33% (n = 330,000). inhibition, % (no concentration beside the values). AID 1259311;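 active means z-score of -3 or lower and OD600 up to 0.18 on both plates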;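 further: plate controls were untreated cells for no effect and reference antibiotic for full effect; stock transfer was 100 nL into about 80 µL; one replicate is shown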
# Autofluor counter = flagged as autofluorescent in microsphere protease counterscreen | fluorescence intensity (test concentration not listed) | compound autofluorescence counterscreen, microsphere flow cytometry; hits give high values | actives 3.1% (n = 360,000);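 active means at least 3 SD above the mean of all compounds, about 16000 in these data; inconclusive means too few beads counted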;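 further: 100 nL of 1 mM stock went into each well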
# PrP 5UTR inh = inhibition of PrP 5' UTR reporter expression; cell-based PrP 5' UTR mRNA reporter, plate reader; inhibition, % (test concentration not listed); actives 0.35% (n = 340,000);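 active means every replicate at 50% or more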;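 further: 0 = median of the neutral control wells; tested in H4 reporter cells; numbers are from one replicate; inactives centre near -14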
# BJeLR viability = BJeLR cell viability loss. BJeLR (HRASV12) viability, CellTiter-Glo ATP luminescence, 48 h; reference of the scale not given here. inhibition, % (no concentration beside the values). actives 0.17% (n = 300,000);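 active means replicate mean above 50%; inconclusive means above 50% but judged a plate artefact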;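 further: 50 nL library stock added to about 25 µL; numbers are from one replicate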
# Mtb hypoxia rep growth = second read-out of Mtb hypoxia rep, no call of its own (marks repeat the call); growth inhibition, %; measured here: M. tuberculosis growth (absorbance);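 0% = vehicle and 100% = reference antibiotic; read after six days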
# * marks the source's active call; other numbers are inactive results; u = inconclusive; x = not tested or not shown; & = joins results of further samples. Compounds were not picked by outcome. Share with any hit: about 4%.
structure	Mtb hypoxia rep	Mtb hypoxia rep growth	Sa ugtP lethal	Sa RN4220 lethal	Autofluor counter	PrP 5UTR inh	BJeLR viability
Cc1cc(=O)[nH]c(SCC(=O)Nc2cccc3ccccc23)c1C#N	-3.9	8.2	-6.2	19.5	11676	-16.7	9.3
N#C/C(=N\Nc1ccc(S(=O)(=O)N2CCCCC2)cc1)C(N)=S	x	x	x	x	9415	-9.6	14.8
Nc1ccc(CN2CCOCC2)cc1	6.2	4.6	2.3	3.7	4467	-17.7	2.8
Fc1ccc(C2=Nn3c(Cc4ccccc4F)nnc3SC2)cc1	x	x	-9.6	19.1	2531	-4.1	-10.5
CC1CC1C(=O)OCC(=O)N(C)c1c(N)n(Cc2ccccc2)c(=O)[nH]c1=O (stereo not drawn)	2.8	-0.5	0.7	2.3	u	-15.8	-2.4
Cn1c(SCC(=O)N/N=C/c2ccc(O)c(O)c2)nc2ccccc21	x	x	x	x	3512	-20.7	-4.8
CN(CC(=O)Nc1c(Cl)cccc1Cl)C(=O)c1cccn1C	0.1	-4.4	-7.4	-1.9	5747	-15.6	1.2
O=C(NCC(c1ccc(F)cc1)N1CCOCC1)c1nn(-c2ccccc2)c(=O)c2ccccc12 (stereo not drawn)	1.6	1.5	-4.4	2.5	3138	-28.4	x
CC1CN(Cc2ccco2)C(=S)N(c2ccccc2)C1=O (stereo not drawn)	6.7	10.7	3.3	4.3	3186	-8.5	x
CCN(CC)c1ccc(C=NN2CCN(Cc3ccc(Cl)cc3)CC2)c(O)c1	7.1	2.5	-2.8	1.8	x	x	x
Cc1ccc(S(=O)(=O)N2CCC(c3nc4c(nnn4Cc4ccccc4)c(=O)[nH]3)CC2)cc1	8.3	11.9	1.9	4.4	4437	-14.3	-0.9
C/C(=N/NC(=O)Cn1nc2ccccc2n1)c1ccc(F)cc1	x	x	x	x	9875	-15.9	21.3
Cc1cc(C(=O)OCC(=O)NC(C)(C)C)c2ccccc2n1	12.3	6.8	2.4	6.0	16530*	-7.7	-5.5
O=C(Nc1nn[nH]n1)c1cc(-c2ccc(Cl)c(Cl)c2Cl)nc2ccccc12	-8.5	-0.3	9.2	6.4	4015	-7.9	6.8
Cc1ccccc1-c1nnc(SCc2ccccc2F)o1	4.6	13.4	43.6	6.3	9405	-65.9	17.9
Clc1ccc(N=C2SCC3CCCCN23)cc1 (stereo not drawn)	5.7	-4.3	1.6	0.2	4246	-56.6	-2.7
COc1cccc(-c2nnc(SCC(=O)N3CC(C)CC(C)C3)o2)c1 (stereo not drawn)	x	x	11.2	10.0	4527	-1.5	-2.8
CCCOC(=O)c1c(N)sc2c1CCC2	7.0	3.4	-5.9	3.0	10649	-22.5	-15.3
CNC(=S)N(Cc1ccco1)Cc1cc2cc(OC)ccc2[nH]c1=O	9.8	9.4	3.7	5.7	3179	21.4	1.3
CN(C)c1nc(-c2ccccc2)c2cnn(Cc3ccccc3)c2n1	3.9	4.6	89.3*	-6.9	8059	-31.5	-6.1
COCCn1c(SCC(=O)N2CCCc3ccccc32)nc2c(c1=O)SC(C)C2 (stereo not drawn)	6.0	2.6	3.9	4.7	5259	-101.6	-10.9
CCCCn1c(O)c(C(CC)=NCCCn2ccnc2)c(=O)[nH]c1=O	0.7	1.2	11.4	-0.4	5863	x	-2.3
COc1ccc(-n2nc(C(=O)NCC(=O)N3CCN(Cc4ccccc4)CC3)c3ccccc3c2=O)cc1	x	x	x	x	5525	-13.6	-7.2
O=c1[nH]c(/C=C\c2ccc(O)c(Cl)c2)nc(O)c1[N+](=O)[O-]	-2.4	-9.7	7.6	2.4	3600	1.9	3.3
c1ccc(C2(CN3CCNCC3CC3CCCCC3)CC2)cc1 (stereo not drawn)	11.1	6.8	-2.2	0.1	x	x	x

# 3 consecutive compounds already listed:
structure	Mtb hypoxia rep	Mtb hypoxia rep growth	Sa ugtP lethal	Sa RN4220 lethal	Autofluor counter	PrP 5UTR inh	BJeLR viability
COc1ccc(-n2nc(C(=O)NCC(=O)N3CCN(Cc4ccccc4)CC3)c3ccccc3c2=O)cc1	x	x	x	x	5525	-13.6	-7.2
O=c1[nH]c(/C=C\c2ccc(O)c(Cl)c2)nc(O)c1[N+](=O)[O-]	-2.4	-9.7	7.6	2.4	3600	1.9	3.3
c1ccc(C2(CN3CCNCC3CC3CCCCC3)CC2)cc1 (stereo not drawn)	11.1	6.8	-2.2	0.1	x	x	x

# The list goes on:
structure	Mtb hypoxia rep	Mtb hypoxia rep growth	Sa ugtP lethal	Sa RN4220 lethal	Autofluor counter	PrP 5UTR inh	BJeLR viability
O=C(C1CC(=O)N(c2ccc3c(c2)OCCO3)C1)N1CCN(S(=O)(=O)c2ccc(F)cc2)CC1 (stereo not drawn)	5.7	0.6	1.8	-2.7	3799	-32.5	x
NS(=O)(=O)c1ccc(CCNC(=O)C2CCCN2C(=O)OCc2ccccc2)cc1 (stereo not drawn)	x	x	-0.5	1.2	2106	2.5&-24.7	-0.3
CC(C)[C@H](NC(=O)[C@@H]1Cc2ccccc2CN1C(=O)OC(C)(C)C)C(=O)NCC1CCC(C(=O)O)CC1 (stereo partly drawn)	-0.1	8.9	6.4	0.1	3230	-12.9	2.6
CCn1c(N2CCN(CC(=O)c3ccc(OC)cc3)CC2)nc2ccccc21	9.5	3.4	14.6	7.6	3373	-16.0	x
CCCCCCC(=O)Nc1ccc(C(=O)N/N=C/c2cccnc2)cc1	x	x	x	x	4244	-6.3	2.9
O=c1ccc(-c2ccc(S(=O)(=O)N3CCN(c4ccccc4)CC3)o2)n[nH]1	2.7	0.1	6.1	2.7	5150	-16.0	-1.1
COc1cc(NC(=O)CSc2nc(C)c(C)c(C)n2)cc(OC)c1	4.5	5.5	0.8	1.4	3124	0.3	1.5
CCc1cc(=O)n2[nH]c(C)c(-c3ccc(OC)cc3)c2n1	4.1	0.5	12.4	3.9	3718	-37.6	-6.6
COc1ccccc1NC(=O)C(C)OC(=O)CCNS(=O)(=O)c1ccc(C)c(C)c1 (stereo not drawn)	7.1	6.4	2.8	0.8	5542	3.0	-1.1
Cc1ccccc1NS(=O)(=O)c1ccc(OCC(=O)N2CCN(C)CC2)cc1	4.3	0.9	2.4	7.9	5691	-17.9	-2.9
COC(=O)c1ccc(C23CC4(C2)[C@H](CN(Cc2cccnc2)[C@@H]4c2ccccc2)C3c2ccccc2)cc1 (stereo partly drawn)	x	x	x	x	5586	-17.2	8.2
O=C(CNCC1CCCCC1)Nc1ccc(OC(F)(F)F)cc1	6.4	-1.7	-0.9	-2.7	4432	-1.6	-7.0
CC(C)CCn1c(CN(C)Cc2ccccc2)nc2c1c(=O)n(C)c(=O)n2C	3.4	10.9	-0.4	-2.8	21381*	1.3	1.7
Cc1cc(N2CCC(C(=O)NC3CCCCC3)CC2)nc(-c2ccccc2)n1	x	x	-6.0	-10.7	4946	-6.7	13.6
O=C(NC1CC1)C1=C[C@H](c2coc3ccccc3c2=O)C[C@H](OCCCCO)O1	x	x	x	x	4142	-5.0	3.1
N#Cc1cccc(C#N)c1N1CCC(C#N)CC1	-2.8	2.6	1.5	1.5	4709	-5.4	16.6
COc1ccc(/C=C(\NC(=O)c2ccc([N+](=O)[O-])cc2)C(=O)NCCCN2CCOCC2)cc1	2.9	12.6	4.0	-0.2	5937	-4.0	-9.2
Cc1ccc(C)c(S(=O)(=O)NNC(=O)Nc2ccccc2Cl)c1	-2.7	12.8	-12.6	7.1	5798	-11.4	-18.4
Cc1ccc(NC(=O)c2cnn(-c3ccccc3)c2C)cc1C	9.4	9.4	-0.1	1.2	3825	-15.9	-3.4
COc1ccc(-c2csc(NC(=O)C3CCN(C(=O)c4ccc(F)cc4)CC3)n2)cc1OC	-1.9	1.9	-11.3	0.8	5483	-5.1	-1.3
Cc1ccc(N(C(=O)c2cc3ccccc3oc2=O)C2C=CS(=O)(=O)C2)cc1 (stereo not drawn)	5.2	4.2	-2.8	6.6	1986	2.0	10.5
COCCN(C(=O)c1oc2ccccc2c1COC)c1c(N)n(CC(C)C)c(=O)[nH]c1=O	4.3	-2.3	2.0	2.3	6613	-17.7	x
Cc1ccc(-c2csc3ncnc(SCC(=O)NCC4CCCO4)c23)cc1 (stereo not drawn)	1.8	6.2	2.1	1.8	9569	-20.2	x
Cc1ccc(S(=O)(=O)Oc2cccc(/C=N/Nc3ccc(C(=O)O)cc3)c2)cc1	x	x	x	x	4997	-7.0	-4.8
CC1=NN(c2ccccc2C(=O)O)C(=O)C1N=Nc1ccccc1 (stereo not drawn)	5.0	-1.0	16.2	14.4	3014	-20.1	-3.0
O=C(NNC(=O)c1cc2ccccc2[nH]1)OCc1ccccc1	13.5	21.1	6.8	4.2	4145	4.3	x
Cn1ncc(N2CCN(S(=O)(=O)c3ccc(Br)cc3)CC2)c(Cl)c1=O	4.6	3.0	0.3	5.7	3422	-17.4	0.0
Cc1cccc(C)c1NC(=O)N1C2CCCC1CC(NC(=O)C(C)(C)C)C2 (stereo not drawn)	1.9	-6.2	0.8	2.1	8486	-9.9	-15.1
Cc1ccccc1SCC(=O)Nc1cccc(C#N)c1	x	x	-6.0	-3.9	3546	-6.8	7.8
COc1ccc(NC(=O)OCCn2c([N+](=O)[O-])cnc2C)cc1	0.1	14.1	-4.4	-0.6	2357	-15.6	-6.6
CC(=O)Nc1sc2c(c1C(c1cccc(F)c1)N1CCN(CCO)CC1)CCCC2 (stereo not drawn)	x	x	4.5	0.0	5566	-15.6	-3.2
CC(C)(C)NCCOCCOc1ccc(Cl)cc1C(C)(C)C	1.3	11.9	12.4	-2.0	2141	-16.0	-7.0
Cc1cc(C)nc(NS(=O)(=O)c2ccc(NC(=O)c3cccc(N4C(=O)CCC4=O)c3)cc2)n1	7.3	0.1	3.6	2.1	1900	8.0	-8.1
COc1ccc2cc(CN(CCc3ccccc3)Cc3nnnn3CC3CCCO3)c(=O)[nH]c2c1 (stereo not drawn)	1.8	-0.1	1.1	7.0	7895	-23.4	-6.6
COc1ccc(NS(=O)(=O)c2ccc(S(=O)(=O)N(C)C)cc2)cc1S(N)(=O)=O	-4.0	-1.7	5.3	1.9	4923	-16.3	1.8
CC(C)(C)c1csc(NC(=O)Cc2ccc(S(=O)(=O)N3CCOCC3)s2)n1	8.8	1.4	-14.2	-1.7	6379	-26.9	-3.8
Cc1nc2c(C)cccc2cc1C(=O)N/N=C/c1cccc([N+](=O)[O-])c1	x	x	x	x	2023	-141.7	-5.1
COc1ccc(-c2nc3c4ccccc4ccn3c2CN2CCCCC2)cc1	6.2	-3.9	19.8	4.8	4138	-33.0	-0.5
CCOC(=O)/C(N=Nc1cc(C(=O)O)cc(C(=O)O)c1)=C(\O)CCl	5.0	-1.7	4.9	3.5	1922	3.1	1.5
Cc1cccc(N2CC(C(=O)Nc3nnc(SCc4ccccn4)s3)CC2=O)c1 (stereo not drawn)	2.5	4.4	1.7	-1.2	5226	-68.8	-5.8
CCN(CC)C(=O)c1[nH]cnc1C(=O)Nc1cccc(C)c1	2.8	2.2	3.8	7.6	4137	-22.9	x
COc1ccc(C)cc1NC(=S)NNC(=O)c1c(Br)cnn1C	5.2	-4.1	9.0	8.8	4228	2.1	3.1
COc1ccc(Nc2nc(N3CCCCC3)nc3ccccc23)c(OC)c1	3.0	20.2	-8.9	-2.9	13078	-10.7	1.2
COc1ccc(CN2C(=NC(=O)COc3ccccc3)SC3CS(=O)(=O)CC32)cc1 (stereo not drawn)	2.1	8.0	-10.4	0.1	5375	-3.7	1.9
COC(=O)Cc1nnc(SCC(=O)Nc2ccccc2)c2ccccc12	10.9	4.9	4.6	3.4	5602	-15.2	-12.5
COc1ccc(C)cc1-n1nnnc1SCn1nnc2ccccc2c1=O	8.2	7.3	-3.4	2.7	9079	-13.6	8.6
COC(=O)c1cc(-c2cccs2)[nH]n1	11.9	5.1	-1.3	8.9	2493	-32.1	12.6
Cc1cccc(C(=O)Nc2nsc(N)n2)c1	2.2	4.9	-4.7	4.7	3912	-23.7	-1.3
COc1ccc2c(c1)C(=NNc1ccc(C(=O)O)cc1)c1cc(OC)ccc1-2	x	x	x	x	3613	-22.2	3.2

# High-throughput results: PubChem, several laboratories
